Sa helicase inh – S. aureus DNA helicase inhibition | purified S. aureus helicase, fluorescence unwinding assay; about half of the hits fall short of the stated cut | inhibition, %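 (tested at about 80 µM)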 | 120,000 tested, 0.05% active;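 active = both duplicates at 50% or more, or one of them with a favoured structure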;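 note: 0% = mean of negative control wells and 100% = mean of positive control wells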
MgrA-DNA mod – modulators of Staphylococcus aureus MgrA DNA binding; fluorescence polarization; inhibition, %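 (about 10 µg/mL by stock and volumes)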; 84,000 tested, 0.13% active;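 active = above 50% in either of two replicates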;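 note: 0% = protein plus DNA without compound and 100% = DNA alone without protein; higher means less MgrA bound to DNA so lower polarization; one replicate is shown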
* marks the source's active call; other numbers are inactive results; . = no result given. This is a subset; rates above refer to the full screens.

SMILES | Sa helicase inh | MgrA-DNA mod
COc1ccc(OCCSc2nc3ccccc3n2CCC(=O)O)cc1 | . | 0.4
S=C1NCN(CCCCc2ccccc2)CN1 | . | 3.8
O=C(c1ccccc1)n1nc(-c2ccco2)nc1NCc1ccccc1 | 3.0 | .
CCC(=O)N1CCc2cc(S(=O)(=O)Nc3ccc(CC)cc3)ccc21 | 9.0 | -4.2
CSc1nc2ccccc2n1CN1CCN(CC(=O)Nc2ccccc2Cl)CC1 | 6.0 | .
COC(=O)c1cc(OC)c(OC)c(OC)c1NC(=O)c1cccs1 | . | -0.5
Cc1cc(NC(=O)COC(=O)/C=C/c2cccs2)no1 | -1.0 | .
CCOC(=O)Cc1ccc(NC(=O)c2ccc(OC)c(OC)c2)cc1 | 9.0 | -1.0
Cc1noc(C)c1CSc1ccccc1C(=O)N1CCN(C(=O)c2ccco2)CC1 | 0.0 | .
O=C(CN1C(=O)c2ccccc2C1=O)OCc1cc(=O)n2ccsc2n1 | 20.0 | .
Cc1nc2ncnn2c(C)c1CCC(=O)N(C)CCOc1ccc(Cl)cc1 | 1.0 | .
COc1cc(C2NC(=O)NC(C)=C2C(=O)OCC2CCCO2)cc(Br)c1O (stereo unspecified) | . | -1.9
C=CCN(CC=C)Cc1c(O)ccc2oc(C)c(C(=O)Nc3ccccc3C)c12 | 14.0 | .
CC(c1ccncc1)N(CCN(C)C)C(=S)Nc1cc(F)cc(F)c1 (stereo unspecified) | 18.0 | -0.1
COc1cc2c(cc1OC)CN(CN1C(=O)CC3(CCCC3)C1=O)CC2 | 15.0 | .
CCN(CC)S(=O)(=O)N1CCN(S(=O)(=O)N2CCOCC2)CC1 | -14.0 | -0.3
COc1cccc(N2CCN(C(=O)CNC(=O)C34CC5CC(CC(C5)C3)C4)CC2)c1 | 7.0 | .
COc1ccc(-c2c(C)nn3c(N)c(-c4ccccc4)cnc23)cc1 | 21.0 | 0.7
Cn1cc(C(=O)N2CCCC2)c(=O)c2cc(S(=O)(=O)N3CCCC3)ccc21 | 15.0 | -0.1
CC(=O)Nc1ccc(OCC(O)CN2C(C)(C)CC(O)CC2(C)C)cc1 (stereo unspecified) | -18.0 | .
Cc1cc2[nH]c(=O)c(=O)[nH]c2cc1S(=O)(=O)N1CCN(CCOc2ccc(Cl)cc2)CC1 | 0.0 | .
COC(=O)c1ccc2c(c1)NC(=O)CN2 | -21.0 | .
CSc1nnc(CNC(=O)NCc2ccccc2)n1C | -1.0 | -0.7
Cn1c(=O)c2c(ncn2CC(=O)N(CC(=O)NC2CCCCC2)Cc2ccccc2Cl)n(C)c1=O | 9.0 | -0.8
N#CC1=C(N)SC(N)=C(C#N)C12C(=O)N(CCc1ccccc1)c1ccccc12 | 5.0 | 3.5
CN(C(=O)c1nc(-c2ccc(Cl)cc2)n2c1CCCCC2)C1CCCCC1 | -7.0 | 1.0
C=CCNC(=S)Nc1cccc(-c2n[nH]c(=S)o2)c1 | . | 0.8
O=C1CN(C(=O)/C=C/c2ccccc2)CCN1 | 21.0 | .
CCCCCc1nc2ccccc2c(=O)n1N | 7.0 | -0.8
O=C(O)CCc1nc2ncccc2c(=O)n1Cc1ccc(F)cc1 | -3.0 | -4.2
COc1ccc(C(=O)N2CCc3cc(OC)c(OC)cc3C2)cc1OC | -17.0 | .
Cc1cc2c(N)cccc2nn1 | . | 4.6
CC(C)c1cccc(C(C)C)c1NS(C)(=O)=O | 20.0 | -1.2
NC(=O)NC(=O)C(Sc1ncccn1)c1ccccc1 (stereo unspecified) | -7.0 | .
CCCc1cc(=O)n2[nH]c(C(F)(F)F)c(-c3ccccc3)c2n1 | . | 0.2
CCOC(=O)c1c[nH]c2onc(C)c2c1=O | . | -1.7
C=CCn1c(SCC(=O)NC(C)C)nnc1-c1ccc2ncccc2c1 | . | -2.8
O=C(NCCCN1CCCC1=O)c1cc(=O)c2ccccc2o1 | 20.0 | 1.4
Cn1c(=O)n(C)c2cc(Nc3cc(N4CCCC4)ncn3)ccc21 | -2.0 | .
O=C(O)C1CCCc2c1[nH]c1ccc(Br)cc21 (stereo unspecified) | -1.0 | .

Three structures out of the list, arranged by number of heavy atoms, lowest first.
SMILES | Sa helicase inh | MgrA-DNA mod
O=C1CN(C(=O)/C=C/c2ccccc2)CCN1 | 21.0 | .
CCOC(=O)Cc1ccc(NC(=O)c2ccc(OC)c(OC)c2)cc1 | 9.0 | -1.0
CSc1nc2ccccc2n1CN1CCN(CC(=O)Nc2ccccc2Cl)CC1 | 6.0 | .

Rewritten as a markdown table: 2 of the compounds above.
| SMILES | Sa helicase inh | MgrA-DNA mod |
| --- | --- | --- |
| CCOC(=O)Cc1ccc(NC(=O)c2ccc(OC)c(OC)c2)cc1 | 9.0 | -1.0 |
| Cc1noc(C)c1CSc1ccccc1C(=O)N1CCN(C(=O)c2ccco2)CC1 | 0.0 | . |

The results go on:
SMILES | Sa helicase inh | MgrA-DNA mod
CC(NC(=O)Cn1cccc1C(=O)c1ccccc1)C12CC3CC(CC(C3)C1)C2 (stereo unspecified) | 14.0 | 1.1
Oc1c(C=NCc2ccccc2)sc2ccccc12 | -15.0 | 1.1
CC(c1ccccc1)n1c(C2CC2)nc2ccccc21 (stereo unspecified) | -8.0 | 2.7
CCN1CCN(CC2CCCCC2)CC1 | -12.0 | -10.1
O=C(CCCn1c(=O)c2ccccc2n(Cc2ccc(Cl)cc2)c1=O)NC1CCCC1 | -3.0 | .
C/C(=N\NC(N)=O)c1csc2ccccc12 | -25.0 | .
Cc1ccc(N2C(=O)CCC(C(=O)OCc3nnc(-c4ccccc4)o3)C2c2cccs2)cc1 (stereo unspecified) | 9.0 | .
CC(=O)N1N=C(c2ccc(Br)cc2)CC1c1nc2ccccc2[nH]1 (stereo unspecified) | . | 4.7
CC(C)C(=O)Nc1sccc1C#N | -18.0 | .
OCC(CO)(CO)NCc1ccc(Cl)cc1Cl | -9.0 | .
Cc1c(C(=O)O)c(C(=O)O)c2n1CCS2 | . | -0.1
Cc1csc(NC2c3ccccc3C(=O)N2Cc2ccccc2)n1 (stereo unspecified) | 11.0 | 0.3
Cc1ccc2nc(COC(=O)Cc3ccsc3)cc(=O)n2c1 | -6.0 | .
CCCn1c(SC(C)C(=O)O)nc2ccccc21 (stereo unspecified) | -5.0 | -2.6
C(=Nc1ccccc1-n1cccc1)c1cnc(-c2ccccc2)[nH]1 | . | 1.4
C[C@@]1(OC(=O)/C=C\c2ccccc2)C[C@H](O)[C@@]2(O)C=CO[C@H](OC3OC(CO)C(O)C(O)C3O)C12 (stereo partly specified) | . | 1.5
CCN1C=CC2=C(C#N)C(N)C(C#N)(C#N)C(c3cccs3)C2C1 (stereo unspecified) | -10.0 | 28.7
CCCOc1cccc2c1CCN(C)C2=O | 7.0 | .
COc1cccc2c1OC1=C(C(=O)CC(C)(C)C1)C2CC(=O)c1ccc(F)cc1 (stereo unspecified) | 4.0 | 0.2
Cc1onc(NC(=O)NC(=O)c2c(Cl)cccc2Cl)c1Br | . | -15.6
O=C(CN1CCCN(Cc2ccccc2)S1(=O)=O)N1CCCCCC1 | -2.0 | .
CNS(=O)(=O)c1cccc(C(=O)OCC(=O)c2cc(C)n(C)c2C)c1 | 15.0 | .
CC(C)(C)S(=O)(=O)/C(C#N)=C/N1CCC(n2cccc2)CC1 | . | 0.5
O=C(Nc1ccon1)c1cccc(Cl)c1 | 2.0 | 0.6
O=C(Cn1c(SCC(=O)Nc2nccs2)nc2ccccc21)NCc1ccccc1 | 9.0 | -3.1
Cc1noc(C)c1COc1ccc(CC(=O)Nc2ccccc2N2CCOCC2)cc1 | -5.0 | .
Cc1c(C(=O)NN)oc2ccccc12 | -14.0 | .
Cc1cc(C)c(S(=O)(=O)N(C)CC(=O)Nc2ccc3c(c2)OCO3)c(C)c1 | -11.0 | -2.1
C#CCn1c(=NC(=O)c2cccs2)sc2ccccc21 | 4.0 | .
COc1cc2c(c(OC)c1)C(c1ccncc1)CC(=O)N2 (stereo unspecified) | 4.0 | .
Cc1ccc(Nc2nn3c(=O)c4ccccc4nc3s2)cc1 | -1.0 | .
CSc1cccc(NC(=O)CN(Cc2ccccc2)S(C)(=O)=O)c1 | -1.0 | 1.9
O=C(O)CSc1cccc2cccnc12 | 21.0 | .
COc1ccc(N(C(=O)Nc2ccccc2N)C(C)C2C(C)(C)C2(C)C)cc1 (stereo unspecified) | 0.0 | -0.9
CN1C(=O)/C(=C2\SC(=S)N(c3ccc(C(=O)O)cc3)C2=O)c2ccccc21 | -22.0 | .
O=S1(=O)CCC(NC(=S)SCc2ccccc2)C1 (stereo unspecified) | 1.0 | .
CCc1ccc2[nH]c(=O)c(CN(Cc3ccco3)C(=O)c3ccccc3)cc2c1 | 11.0 | 3.4
CCCCCCSc1s[nH]c(=O)c1C#N | -13.0 | .
CC(CC(=O)NC1CCCC1)c1ccccc1 (stereo unspecified) | -4.0 | 1.6
COC(=O)CSc1nc2c(cc1C#N)CCCC2 | -3.0 | 2.8

At a glance, part of the list above.
SMILES | Sa helicase inh | MgrA-DNA mod
CC(=O)N1N=C(c2ccc(Br)cc2)CC1c1nc2ccccc2[nH]1 (stereo unspecified) | . | 4.7
CC(C)C(=O)Nc1sccc1C#N | -18.0 | .
OCC(CO)(CO)NCc1ccc(Cl)cc1Cl | -9.0 | .
Cc1c(C(=O)O)c(C(=O)O)c2n1CCS2 | . | -0.1
Cc1csc(NC2c3ccccc3C(=O)N2Cc2ccccc2)n1 (stereo unspecified) | 11.0 | 0.3

(listing goes on)
SMILES | Sa helicase inh | MgrA-DNA mod
CCN(Cc1ccccc1)C(=O)CN1C(=O)c2ccccc2C1=O | -10.0 | .
c1ccc(CSc2ncnc3c2cnn3-c2ccccc2)cc1 | -4.0 | 7.3
CC1Sc2ccc(Cl)cc2-c2nc(N)ncc21 (stereo unspecified) | . | 1.1
COCCOc1ncc(NC(=O)CSCC(=O)O)cc1C(F)(F)F | -14.0 | .
CCc1ccc(NC2=NC(C(=O)NC3CCCCC3)CC(=O)N2)cc1 (stereo unspecified) | -29.0 | .
CCCC1C2c3ccccc3C(c3ccccc32)C1C(=O)Nc1ccccc1OC (stereo unspecified) | 16.0 | 3.6
CC(C)=C1C(=O)Nc2ccc(S(=O)(=O)N3CCCCC3)cc21 | 23.0 | .
CCOC(=O)/C(C#N)=C/c1ccc2c(c1)c1ccccc1n2CC | 10.0 | 1.1
c1csc(-c2nnc(SCc3cscn3)n2C2CC2)c1 | -6.0 | .
CNC1c2cccc(OC)c2OCC1CO (stereo unspecified) | . | -0.3
Cc1c(NC(=O)c2cc3nc(-c4ccc5c(c4)OCO5)cc(C(F)(F)F)n3n2)c(=O)n(-c2ccccc2)n1C | . | -3.0
CC(O/N=C/c1ccc2c(c1)OCO2)C(=O)N1CCc2ccccc21 (stereo unspecified) | -1.0 | .
COc1cc2[nH]c(=O)c(C(=O)NC3CCCC3)c(O)c2cc1OC | -2.0 | 0.8
S=C(NC1CCCC1)NN1CCOCC1 | 5.0 | 0.2
Cc1ccc(-c2csc(-n3sc4ccccc4c3=O)n2)cc1 | -21.0 | 0.2
CCN1CCN(Cc2ccc(NC(=O)Cc3noc4ccccc34)cc2)CC1 | 14.0 | 0.5
Cc1ccccc1N(C(=O)c1cccs1)c1nc2ccccc2s1 | 3.0 | .
CCS(=O)(=O)n1nc(C(=O)N2CCOCC2)nc1N | 0.0 | .
O=C(OCc1cnc(Cl)s1)c1cccc(Cl)c1 | . | -0.1
CCOC(=O)C1CCN(c2ccc(-c3cccs3)nn2)CC1 | 1.0 | .
O=C(OCCNc1ncc(C(F)(F)F)cc1Cl)C1CCC1 | 13.0 | .
Clc1ccc(-c2cc(-c3ccccn3)on2)cc1 | . | -3.2
O=C(Oc1ccccc1N1CCOCC1)c1cccs1 | . | -3.0
Cc1nn(-c2ccccc2)c2sc(C(=O)N=Nc3[nH]c(N)c4ccccc34)cc12 | -8.0 | .
Nc1nc(Cl)cc(Oc2ccc(Cl)cc2)n1 | -5.0 | 1.1
O=C(NCc1cccs1)C1C2C=CC3(CN(CCCN4CCOCC4)C(=O)C13)O2 (stereo unspecified) | -27.0 | .
CCN(CC)S(=O)(=O)c1cccc(C(=O)N2CCCC2=C(C#N)C#N)c1 | -4.0 | .
COC(=O)c1cc(Br)c(-n2cccc2)cc1OC | . | -1.6
CCc1ccc(S(=O)(=O)/N=C2\C=CC(=O)c3ccccc32)cc1 | 22.0 | 33.9
O=C(O)Cc1sc(-c2ccccc2)nc1-c1ccccc1 | . | -1.4
Cc1cc(C)c(C(=O)O)c(N)n1 | . | -1.4
CC1=C(c2ccc(C)cc2)S(=O)(=O)NC1=NC1CCN(Cc2ccccc2)CC1 | 1.0 | 1.6
Cc1cccc(-n2ncc3c(Nc4ccc(-c5ccccc5)cc4)ncnc32)c1 | 12.0 | 1.8
O=C(NCc1ccccc1Cl)C1CCN(S(=O)(=O)N2CCCCC2)CC1 | 7.0 | .
O=C(Nc1nonc1-c1nc2ccccc2[nH]1)c1ccccc1Cl | 0.0 | .
O=C1CSc2cc(S(=O)(=O)NN3CCOCC3)ccc2N1 | 0.0 | 6.8
COc1cc(C(=O)OCC(=O)NC2C3CC4CC(C3)CC2C4)cc2c1OCCO2 (stereo unspecified) | -10.0 | .
Nc1cc(-c2ccc(OC(F)(F)F)cc2)nn1-c1ccc(Cl)cc1 | . | 0.2
COc1ccc(C2Nc3ccccc3C(=O)N2c2ccc(F)cc2)cc1CSc1ccccn1 (stereo unspecified) | . | -0.6
COc1ccc(C2CC(c3ccc4ccccc4c3)=NN2C(=O)Cn2cnnc2C#N)cc1 (stereo unspecified) | -10.0 | .
O=S(=O)(c1ccc(F)c(F)c1F)N1CCN(C(=S)NC2CC3CCC2C3)CC1 (stereo unspecified) | -5.0 | .
O=C(CP(=O)(c1ccccc1)c1ccccc1)N1CCCCC1 | 7.0 | -6.2
O=c1[nH]nc(SCc2ccc(Cl)cc2)c(=O)[nH]1 | 36.0 | .
O=c1[nH]c(-c2ccccc2)nc2c1sc(=S)n2Cc1ccccc1 | -15.0 | .
NCCCOCc1ccco1 | 6.0 | .
